# GALR2 ag: agonists of human galanin receptor 2 (GALR2) | O43603 | GALR2-expressing cells, agonist activation read-out | activation, %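 (tested at 5 µM)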 | hit rate 0.48% among 140,000 | AID 803;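 active = above mean plus 3 SD of all compounds, about 5% in these data, not always enough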;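 note: 0% = vehicle buffer wells and 100% = reference agonist at full effect; tested in CHO reporter cells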
# RGS16-Gao HTS: modulates binding between human RGS16 and Galphao | O15492+P09471 | bead-based flow cytometry RGS16-Galphao binding, fluorescence; actives lie on both sides | binding response (% of control), % at 10 µM | hit rate 0.38% among 220,000;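 active = below 25% or above 175%, edge rows of some plates excepted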;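 note: Galphao activated by GDP with aluminum fluoride before binding; 100% = wells without compound and 0% = beads without RGS; some results beyond the cut were filed as inactive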
# PKD1 kinase inh: blocks activity of human protein kinase D1 | Q15139 | PKD1 kinase fluorescence polarization assay | inhibition, %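 (about 10 µM by stock and volumes)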 | hit rate 0.056% among 200,000;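 active = inhibition of 50% or more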;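 note: controls were vehicle for no effect and a reference inhibitor for full effect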
# Target sequence (Q15139 whole entry, looked up): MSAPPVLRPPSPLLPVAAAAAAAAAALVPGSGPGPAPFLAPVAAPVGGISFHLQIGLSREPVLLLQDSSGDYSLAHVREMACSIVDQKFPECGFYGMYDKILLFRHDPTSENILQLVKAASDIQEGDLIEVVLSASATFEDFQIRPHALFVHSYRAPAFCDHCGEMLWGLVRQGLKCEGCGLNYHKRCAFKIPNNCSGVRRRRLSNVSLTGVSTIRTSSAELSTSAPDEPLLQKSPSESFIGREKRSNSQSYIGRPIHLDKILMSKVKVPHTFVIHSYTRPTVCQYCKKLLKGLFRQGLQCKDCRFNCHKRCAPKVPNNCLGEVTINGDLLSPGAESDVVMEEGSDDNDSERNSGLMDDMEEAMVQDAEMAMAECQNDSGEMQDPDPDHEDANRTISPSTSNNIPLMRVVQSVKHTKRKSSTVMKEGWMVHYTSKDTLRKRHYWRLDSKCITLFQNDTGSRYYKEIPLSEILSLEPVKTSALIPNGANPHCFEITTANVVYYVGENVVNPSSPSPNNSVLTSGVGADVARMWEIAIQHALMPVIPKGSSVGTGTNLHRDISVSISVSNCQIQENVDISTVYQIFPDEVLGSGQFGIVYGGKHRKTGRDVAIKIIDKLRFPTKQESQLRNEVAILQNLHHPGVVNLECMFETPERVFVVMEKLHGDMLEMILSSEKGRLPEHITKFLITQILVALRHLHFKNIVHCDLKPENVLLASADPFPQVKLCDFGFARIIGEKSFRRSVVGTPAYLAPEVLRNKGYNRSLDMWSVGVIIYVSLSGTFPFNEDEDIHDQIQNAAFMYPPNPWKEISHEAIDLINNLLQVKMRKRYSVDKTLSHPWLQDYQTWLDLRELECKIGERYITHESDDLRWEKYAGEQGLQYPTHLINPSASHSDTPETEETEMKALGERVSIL
# INS promoter inh: TRM-6 insulin promoter activity inhibition. inhibition, % at 2 µM. hit rate 0.9% among 130,000. TRM-6 cells (human fetal islet line), insulin promoter-eGFP reporter, imaging; reporter expression induced with tamoxifen;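 active = inhibition above the mean plus 3 SD, with well images judged a real hit on visual review, cut at about 60% in these data, passing the limit was not always enough; inconclusive = inhibition over the cutoff but images rejected on review; inactive = inhibition not above the cutoff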
# HSV augment: HSV replication enhancement; HSV replication augmentation in cells, fold increase; maximum fold increase; AID 1956; hit rate 0.005% among 220,000;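 active = peak rise of 1.5-fold or more in the series; inconclusive = self-fluorescent or not available for retest; tested in PC3 cells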;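 note: first round at 10 µM; read as green reporter fluorescence; hits show the peak of a series up to 25 µM; 1 = signal of infected wells without compound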
# INS promoter inh cell count: further read-out of INS promoter inh, marked with its call; normalized cell count, %; measured here: cell count, toxicity; reference of the scale not given here;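 cells exposed to compound for 48 h; stained nuclei by imaging scaled within each plate; lower means fewer cells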
# HSV augment primary fold: recorded beside HSV augment, whose call it bears; fold increase; compound at 10 µM; measured here: primary screen fold increase 10 uM; tested in PC3 cells;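 GFP signal in the first replicate; 1 = infected wells without compound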
# * marks the source's active call; other numbers are inactive results; i = inactive; ? = inconclusive; . = not tested or not shown; & = joins results of further samples.
Structure	GALR2 ag	RGS16-Gao HTS	PKD1 kinase inh	INS promoter inh	INS promoter inh cell count	HSV augment	HSV augment primary fold
CC1=Nc2ccc(C)cc2/C1=C/c1c(N)n2oc(C)cc2nc1=O	.	98&100	4	-131	92	i	1
O=C1c2ccccc2C(=O)C12Cc1ccccc1N1CCN(c3ccccc3)CC12 (stereo unspecified)	0.0	113	-13	-8	99	i	1.1
CCNC(=O)c1cc(S(=O)(=O)N(C)C)c(Cl)cc1Cl	.	124	-5	.	.	i	1
O=C1SCC(c2ccccc2)=NN1Cc1ccccc1	-0.6	121	-1	38	31	i	0.89
Cc1cc(C)c(S(=O)(=O)Nc2ccc3c4c(cccc24)CC3)c(C)c1	0.2	91	9	-123	14	i	0.96
Clc1ccc(Cc2noc(CN3CCN(c4ccccc4)CC3)n2)c(Cl)c1	-1.9	79	-2	-41	114	i	1.1
COc1ccccc1NC(=O)Nc1cnccn1	.	105	1	-20	100	i	0.98
Cn1c(CCc2nc3ccccc3[nH]2)nnc1SCC#N	.	102	-5	-14	71	i	0.96
CCN(CC)S(=O)(=O)c1ccc(-c2nnc(SCC(=O)Nc3nnc(C)s3)n2CC)cc1	-0.6	102	0	51	100	i	0.79
Cc1ccc(OC(C)c2nnc(N)s2)cc1Cl (stereo unspecified)	0.2	100	-2	24	120	.	.
COC(=O)c1c(C)oc(C)c1S(=O)(=O)N(C)C1CCCCC1	.	98	.	.	.	i	1.1
CCCCCC(=O)NC(NC(=S)Nc1ccc(S(N)(=O)=O)cc1)C(Cl)(Cl)Cl (stereo unspecified)	-1.6	102	1	-10	178	i	0.92
O=c1c2ccccc2ncn1-c1ccc(Cl)c(Cl)c1	-2.1	97	-1	-31	115	i	0.78
O=C(COC(=O)c1ccc(O)cc1)Nc1ncc(Cl)cc1Cl	.	102	-9	.	.	i	1.1
COc1ccccc1NC(=O)CNS(=O)(=O)c1ccccc1	-1.9	109	7	-378	38	i	1.1
Cc1ccc(C(C)n2cc(C(=O)NCc3cccnc3)nn2)cc1 (stereo unspecified)	-1.2	83	-3	11	176	i	0.99
Cc1cc(C)nc(N(C#N)CC(=O)N2CCC(C(N)=O)CC2)n1	-1.3	100	-7	-23	76	i	0.94
COc1ccccc1N1CCN(CC(=O)Nc2ccc(Cl)c(C(F)(F)F)c2)CC1	-4.8	98	10	-9	134	i	0.91
COc1ccc(S(=O)(=O)N2CCOCC2)cc1NC(=O)CSc1nnc2c(n1)[nH]c1ccccc12	.	100	.	.	.	i	0.85
CCN(C(=O)c1ccnn1C)c1ccccc1	-1.4	66	-5	25	127	i	0.95
CCOc1cc(N(CC)CC)ccc1/C=C(/C#N)c1nc2ccccc2[nH]1	-0.9	100	-18	-233	88	.	.
Cc1ccc(NC(=O)COC(=O)CNC(=O)c2ccco2)cc1	.	98	3	.	.	i	0.79
CN1CCc2nc(NC(=O)COc3ccc(C#N)cc3)sc2C1	.	102	0	21	86	i	1
CCC(=O)NNc1nc2c(F)cc(F)cc2s1	.	95	0	-22	34	i	0.94
NCCCCCc1nnc(SCc2ccccc2Cl)o1	-0.7	98	-6	18	96	i	0.86
NCCCSC1=NCCCN1	-2.4	103	7	.	.	i	1.2
Clc1ccccc1OCc1nnc2n1CCCCC2	.	99	.	.	.	i	0.96
CCN(C(=O)CSc1nc2ccccc2n1CC)C1CCS(=O)(=O)C1 (stereo unspecified)	.	98	-1	.	.	i	0.96
COC(=O)c1ccc(Cl)cc1N(Cc1c(F)cccc1Cl)S(C)(=O)=O	.	99	.	.	.	i	1.2
Cc1ccc2nc(C(F)C(F)(F)F)[nH]c2c1 (stereo unspecified)	.	99	-15	.	.	i	0.86
Cc1ccccc1OCC(O)Cn1c2ccccc2c2ccccc21 (stereo unspecified)	-2.3	104	-8	-10	128	i	0.93
O=C(Nc1ccccc1)Oc1ccc[nH]c1=O	.	97	.	.	.	i	1.1
C#CCOCCOCCOCCNc1nc(N2CCN(C(=O)[C@H](CCC(=O)O)n3cc(C(N)CC(C)C)nn3)CC2)nc(N2CCN(C(=O)[C@H](Cc3cc4ccccc4[nH]3)n3cc(C(N)[C@H](C)CC)nn3)CC2)n1 (stereo partly specified)	.	98	4	.	.	.	.
C=CCn1c(N)c(C(=O)Nc2ccc(C)cc2)sc1=S	-0.2	111	4	7	110	.	.
Cc1ccc2c(c1)/C(=N/OS(=O)(=O)c1ccccc1)CCS2	-3.6	.	-9	-22	108	i	0.93
CCNc1nc(CN2CCCCC2)nc2scc(-c3ccccc3)c12	0.1	99	-2	.	.	i	1.1
O=C1NC[C@H](Cc2ccccc2)N(CCc2cccc(F)c2)C1=O	.	96	.	.	.	i	0.86
COCCN(C(=O)Nc1ccccc1)c1ccccc1	0.5	72	-2	-24	78	i	0.94
COc1ccc(CCC(=O)N2CC(C)OC(C)C2)cc1 (stereo unspecified)	-2.1	105	-4	-50	74	i	0.91
COc1ccc2nc(SCC(=O)NN)cc(C)c2c1	-1.9	97	1	-6	57	i	0.85
CCOC(=O)c1nn(-c2ccc(F)cc2)c(=O)c2c(N)scc12	.	93	-2	31	99	i	0.92
O=C(Cn1cnc2cc([N+](=O)[O-])ccc2c1=O)Nc1cccc(S(=O)(=O)N2CCOCC2)c1	.	96	-1	14	152	i	0.95
CCOC(=O)c1cnc2c(-c3ccccc3)c(C)nn2c1N	-0.3	87	-9	-13	82	i	1.1
COCCNC(=O)c1c(N)sc2c1CCCC2	-1.9	115	11	-29	68	i	1.2
OCC1(Cc2cccc(C(F)(F)F)c2)CCN(Cc2cc3ccccc3o2)CC1	.	102	0	13	174	i	0.9
COc1ccc(S(=O)(=O)Cc2ccccc2)cc1N	-1.1	100	-6	-12	129	i	0.88
COc1ccc(Cn2nnnc2CN(CCCN2CCOCC2)Cc2cc3cc(OC)ccc3[nH]c2=O)cc1	.	98	-4	-43	83	i	0.91
CCOCCCNCc1cc(Cl)cc(Cl)c1OCC	.	102	2	-35	43	i	1.1
O=C(Cn1ncc2c(=O)oc3ccccc3c21)N1CCN(c2ccccn2)CC1	-0.5	98	-6	.	.	i	1
CCO[C@H]1OC(C(=O)N2CCCCCCC2)=C[C@@H](c2csc3ccccc23)[C@@H]1CCCO	.	111	7	.	.	.	.
COCCNC(=O)COC(=O)C1=Cc2ccccc2OC1	.	107	-1	.	.	i	0.95
COc1ccccc1C(=O)Nc1ccc(C)cc1C(=O)c1ccccc1	-1.0	95	-3	.	.	i	1.1
CCOCCCNC(=O)C1CCN(S(=O)(=O)c2ccc(C)cc2)CC1	-1.4	101	-1	31	122	i	0.96
O=c1c2ccccc2c(-c2ccccc2)nn1Cc1ccccc1	0.0	104	-7	23	98	i	1
CN(C)C(=O)N1CCC(C(=O)NCc2ccc(F)cc2Cl)CC1	-1.0	101	7	-26	59	i	0.95
Cc1cc(C)c(C(=O)CSc2nnc(C)s2)c(C)c1	.	103	-4	.	.	i	0.99
Cc1cc(S(=O)(=O)Nc2ccc3c(c2)n(C)c(=O)n3C)ccc1F	.	103	1	.	.	i	0.97
O=C(OC1CCOC1=O)c1cccc(S(=O)(=O)Nc2cccc(Cl)c2)c1 (stereo unspecified)	-1.5	102	-15	43	146	i	0.86
Clc1ccc(-c2ccc(CNCC3CCCO3)o2)cc1 (stereo unspecified)	.	103	.	.	.	i	0.95
O=C(CSc1ncnc2c1cnn2-c1ccccc1Cl)N1CCN(C(=O)c2ccco2)CC1	-1.0	100	10	.	.	i	0.92

# Among those listed so far, these contain a CF3 group:
Structure	GALR2 ag	RGS16-Gao HTS	PKD1 kinase inh	INS promoter inh	INS promoter inh cell count	HSV augment	HSV augment primary fold
COc1ccccc1N1CCN(CC(=O)Nc2ccc(Cl)c(C(F)(F)F)c2)CC1	-4.8	98	10	-9	134	i	0.91
Cc1ccc2nc(C(F)C(F)(F)F)[nH]c2c1 (stereo unspecified)	.	99	-15	.	.	i	0.86
OCC1(Cc2cccc(C(F)(F)F)c2)CCN(Cc2cc3ccccc3o2)CC1	.	102	0	13	174	i	0.9

# Later entries
Structure	GALR2 ag	RGS16-Gao HTS	PKD1 kinase inh	INS promoter inh	INS promoter inh cell count	HSV augment	HSV augment primary fold
CCN1CCN(Cc2cc(=O)oc3cc(C)cc(C)c23)CC1	-0.1	99	-1	14	92	i	0.69
N#Cc1cnn(Cc2ccccc2)c1N	-3.8	96	12	.	.	i	1
CSc1ccccc1C(=O)NCCc1ccc(S(=O)(=O)N2CCCCC2)cc1	0.5	105	-3	-41	174	i	1
COc1ccc(Nc2ncc(C(=O)N3CCN(c4ccc(F)cc4)CC3)c3ccccc23)cc1	-2.2	138	-2	-8	69	i	0.86
CC(C)Oc1ccc(C(=O)NCc2cccs2)cc1	-0.8	102	2	.	.	i	0.82
CCCOP(=O)(OCCC)c1c([N+](=O)[O-])cc(C(F)(F)F)cc1[N+](=O)[O-]	-1.5	88	-1	-9	73	i	0.78
O=C(NCCC1=CCCCC1)C1CCN(S(=O)(=O)c2cccc3nsnc23)CC1	0.7	98	-8	-42	69	i	1
O=C(c1cc2n(n1)C(C(F)(F)F)CC(c1ccc(Cl)cc1)N2)N1CCCC1 (stereo unspecified)	-0.9	96	-4	-18	46	i	1
O=C(Nc1ccc([N+](=O)[O-])cn1)c1cc(-c2cccc(Cl)c2)nc2ccccc12	-0.4	101	-6	15	59	i	0.91
CN(C)c1ccc(NC(=O)Oc2ccccc2)cc1	-0.8	103	-7	-30	86	i	1
CCOC(=O)N1CCN(C(=O)c2ccccc2NC(=O)c2ccc(Br)cc2)CC1	-1.1	107	-11	-25	76	i	0.97
CCOC(=O)c1c(NC(=S)Nc2ccc(Cl)cc2)sc(C)c1C	-1.7	105	-7	5	117	.	.
CC(=O)N1CCN(c2c(F)c(F)c(C(F)(F)F)c(F)c2F)CC1	.	109	3	.	.	i	1
Cc1ccc(-c2cc(C(F)(F)F)nc(SCC(=O)c3cccc([N+](=O)[O-])c3)n2)cc1	0.5	100	-3	4	64	i	0.94
COc1cc(-c2nc3ccccn3c2/N=C/c2ccc(F)cc2)ccc1O	.	100	1	.	.	i	1.1
O=C(CSC1=NCCS1)NCc1ccco1	-5.5	97	3	-72	114	i	0.87
COCCn1c(N2CCN(c3ccccc3)CC2)nc2c1c(=O)n(C)c(=O)n2C	.	100	3	.	.	i	0.89
COc1ccc(Nc2cc(C(=O)N3CCc4ccccc4C3)c3ccccc3n2)c(OC)c1	.	104	-1	.	.	i	0.92
CN(C)S(=O)(=O)c1cc(NC(=O)CN2CCNC(=O)C2)ccc1Cl	-1.2	84	-10	27	136	i	0.9
COc1ccc(Br)cc1S(=O)(=O)n1ccnc1	.	99	0	.	.	i	0.98

# 3 compounds already listed, ordered by molecular weight, falling:
Structure	GALR2 ag	RGS16-Gao HTS	PKD1 kinase inh	INS promoter inh	INS promoter inh cell count	HSV augment	HSV augment primary fold
CCCOP(=O)(OCCC)c1c([N+](=O)[O-])cc(C(F)(F)F)cc1[N+](=O)[O-]	-1.5	88	-1	-9	73	i	0.78
C=CCn1c(N)c(C(=O)Nc2ccc(C)cc2)sc1=S	-0.2	111	4	7	110	.	.
Clc1ccccc1OCc1nnc2n1CCCCC2	.	99	.	.	.	i	0.96

# Next compounds
Structure	GALR2 ag	RGS16-Gao HTS	PKD1 kinase inh	INS promoter inh	INS promoter inh cell count	HSV augment	HSV augment primary fold
COc1cc(/C=C2/C(=N)N3C=CSC3=NC2=O)ccc1OCCCOc1cc(C)ccc1C	-2.2	101	-4	34	141	i	1.1
COc1ccc(C(CNC(=O)CN2C(=O)NC3(CC(C)CC(C)(C)C3)C2=O)N2CCOCC2)cc1 (stereo unspecified)	0.5	107	-1	47	62	i	0.98
COc1cc(OC)cc(C(=O)NC(=S)Nc2ccc(NC(=O)c3ccco3)cc2)c1	-0.7	109	3	27	85	i	0.94
COc1ccc2c(c1)-c1nc(NC(=O)c3cccs3)sc1CC2	-1.5	101	-5	-19	91	i	0.79
Cc1ccc2c(c1)N(CC(=O)Nc1ccc3c(c1)OCCO3)C(=O)CO2	-2.6	104	-10	0	134	i	1.1
CCS(=O)(=O)c1ccc(O)c(NC(=O)/C=C/c2ccccc2)c1	.	75	-8	-20	93	i	0.95
O=[N+]([O-])c1ccc(C2=NN(c3ccccc3)C(c3ccco3)C2)cc1 (stereo unspecified)	.	119	.	.	.	?	.
O=C(NCCc1ccccc1)N1c2ccccc2Sc2ccccc21	-2.0	102	-14	4	101	i	0.98
COC(/C=C/Nc1ccc(C)c(C)c1)=C(C#N)C#N	-2.0	98	-3	-7	105	i	1.4

# Compound activity: PubChem, several laboratories
